Compound activity from PubChem BioAssay.
HCMV NEC inh: cytomegalovirus nuclear egress complex inhibition. HTRF UL50-UL53 interaction, normalized percent inhibition. inhibition, % (concentration not given with the values). 190,000 tested, 0.15% active;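 active = both replicates at 50% or more, plus weaker picks with an unusually low signal ratio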;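 also: stock transfer was 100 nL into about 20 µL; 0% = negative control wells and 100% = wells with untagged competitor protein; inactives centre near -12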
Sa growth 42C: S. aureus growth inhibition; S. aureus RN4220 growth, OD600, 20 h, 42 °C; hits give low values; relative growth, % (concentration not given with the values); 170,000 tested, 0.53% active; AID 720641;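 active = growth at 42 °C up to 50% and 20 or more points under that at 30 °C, or under 10% at both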;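 also: 300 nL library stock went into each well; scaled to the means of positive and negative controls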
GIV Gai3 FP: inhibitors of GIV GBA-motif binding to rat Galpha-i3. P08753. Galpha-i3/FITC-GIV peptide fluorescence polarization, 90 min; hits give low values; scaled: aluminum fluoride 0%, vehicle 100%. percent of control (FP), % (concentration not given with the values). 210,000 tested, 0.42% active;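 active = replicate mean at 85% of control or lower, very high polarization wells dropped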;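 also: wells of about 15 µL received 100 nL stock; the first replicate is given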
Target sequence (P08753 whole entry, looked up): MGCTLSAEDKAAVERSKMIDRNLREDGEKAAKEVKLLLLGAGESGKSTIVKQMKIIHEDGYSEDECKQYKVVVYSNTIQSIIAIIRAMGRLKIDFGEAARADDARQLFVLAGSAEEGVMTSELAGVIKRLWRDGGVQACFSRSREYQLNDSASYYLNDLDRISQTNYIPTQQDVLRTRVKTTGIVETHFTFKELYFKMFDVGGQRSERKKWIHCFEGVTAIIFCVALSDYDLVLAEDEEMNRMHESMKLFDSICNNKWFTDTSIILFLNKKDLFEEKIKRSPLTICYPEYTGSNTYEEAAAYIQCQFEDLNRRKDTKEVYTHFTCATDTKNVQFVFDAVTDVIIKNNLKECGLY
Sa growth 42C second temp: further read-out of Sa growth 42C, marked with its call; relative growth, %; measured here: growth at 30 °C;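 optical density after 20 h as mean of two plates; 100% = untreated growth and lower means inhibition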
An asterisk follows results filed as active; . = no result given; & = joins results of further samples.

Second line of a record – HCMV NEC inh, Sa growth 42C, Sa growth 42C second temp, GIV Gai3 FP
> Cc1ccc(CNC(=O)C(=O)NCC(c2cccs2)S(=O)(=O)c2ccc(C)cc2)cc1 (configuration not stated)
  ., 94.7, 86.1, 95.1
> CS(=O)(=O)N(C(=O)NC(=O)NC12CC3CC(CC(C3)C1)C2)C1CCCCC1
  6.8, 94.7, 100.6, .
> O=C(c1cccc(Oc2ccccc2)c1)N1CCN(c2ccccn2)CC1
  -6.1, 92.4, 71.7, .
> CCn1c(C(=O)NCc2ccccc2C)cc2oc3ccccc3c21
  -8.0, 101.9, 89.8, 99.9
> CN(C(=O)c1ccco1)c1ccccc1
  16.8, 113.3, 101.9, 109.8
> CC1CCCC(NC(=O)COC(=O)c2cncc(Br)c2)C1C (configuration not stated)
  13.8, 107.4, 98.0, .
> Cn1c(=O)c2sccc2n2c(CCC(=O)N3CCN(c4ncccn4)CC3)nnc12
  -26.5, 87.9, 88.3, 104.8
> O=C(NC1=NC2CCCCC2N1)c1ccccc1 (configuration not stated)
  -3.7, 89.1, 94.6, .
> CSc1ncc(Cl)c(C(=O)C(C#N)c2nc3ccccc3c(=O)[nH]2)n1 (configuration not stated)
  -19.7, 100.1, 87.4, .
> CCOc1ccc(-c2nonc2NC(=O)C(C)Oc2ccc(F)cc2)cc1C (configuration not stated)
  -16.1, ., ., 84.2*
> O=C(Nc1ccc2c(c1)CCCN2C(=O)c1cccs1)c1ccc(F)c(F)c1
  ., 97.9, 89.1, 101.1
> O=C(O)CC1(CC(=O)NCC2COc3ccccc3O2)CCCCC1 (configuration not stated)
  -8.4, 106.7, 90.5, 99.8
> CCOCCCNC(=O)CCC(=O)NNc1nc2ccccc2c2nc(C)nn12
  -22.6, 100.5, 89.1, 95.6
> COc1cc2nc(C)n(C(=S)S)c2cc1OC
  -1.5, 81.2, 90.5, .
> O=c1c2cc3c(cc2nc2sc(Nc4cccc([N+](=O)[O-])c4)nn12)OCO3
  ., 88.8, 93.6, 100.0
> CC1Cc2ccccc2N1C(=O)Cn1cnc2ccccc2c1=O (configuration not stated)
  -29.2, 108.0, 94.3, .
> CN(Cc1ccc(Cl)c(Cl)c1)Cn1nnc2ccccc21
  -40.9, 71.5, 93.1, .
> COCCCNC(=O)c1cc(-c2ccc(OC)cc2)nc2n[nH]c(-c3ccccc3)c12
  11.3, ., ., 98.4
> O=C(NCCS(=O)(=O)c1ccc(C(F)(F)F)cn1)c1ccc(Cl)cc1
  -12.1&-0.2, 102.4, 84.8, 101.7
> Cc1ccc(NC(c2cccc(Cl)c2)c2nnc(-c3ccccc3)o2)cc1F (configuration not stated)
  -9.6, 104.6, 88.0, 104.7
> Cc1cc(C)c(NC(=O)C2CCN(c3nc4ccccc4[nH]3)CC2)c(C)c1
  ., 99.5, 71.2, 100.4
> Cc1occc1-c1nnc(SCCCC(=O)c2ccc(Br)cc2)n1C
  6.6, 89.2, 97.1, .
> O=C(Nc1cc(F)ccc1F)N1CCC(CN2CCCC2)CC1
  ., 126.6, 88.3, 106.3
> COc1ccc(C(=O)Nc2ccc3nc4n(c(=O)c3c2)CCCCC4)cc1OC
  -2.6, 106.6, 96.3, 105.1
> Cc1ccc(NC(=O)Cc2ccc(-n3c(C)nc4cccnc43)cc2)cc1C
  ., 82.6, 87.6, 112.6
> CCCC1=NN2CCS(=O)(=O)N=C2S1
  -7.0, 106.5, 94.0, .
> CCn1c(C(=O)O)c(CC(=O)Nc2cc(OC)ccc2OC)c2ccccc21
  -13.6, 107.8, 60.0, 97.3
> Oc1cccc2ccc[n+](CC(O)Cn3c4ccccc4c4ccccc43)c12 (configuration not stated)
  ., 129.7, 76.5, 96.6
> COc1ccccc1CNC(=O)CCCCn1c(=O)c2ccccc2n(CC(=O)Nc2c(C)cc(C)cc2C)c1=O
  -11.9, 105.8, 89.7, 100.2
> COc1ccc(-n2nnnc2SCC(=O)NCCc2ccccc2)cc1
  -25.0, 93.9, 88.3, 109.2

(continued)
Second line of a record – HCMV NEC inh, Sa growth 42C, Sa growth 42C second temp, GIV Gai3 FP
> CCCn1c(=O)c2sccc2n2c(SCC(=O)Nc3ccc(C(=O)OCC)cc3)nnc12
  -14.3, ., ., 106.4
> CCOC(=O)c1sc2nc(N3CCOCC3)c3c(c2c1N)CC(C)(C)N(C)C3
  -9.9, ., ., 103.6
> O=C(CC12CC3CC(CC(C3)C1)C2)NCC(=O)N1CCCC1
  -8.2, 102.0, 89.8, 104.9
> O=C(NC1CC1)c1sc2cc(F)ccc2c1Cl
  -8.5, 89.5, 98.2, .
> CCC(=O)Nc1nonc1-c1nc2ccccc2n1C
  -7.6, 107.3, 67.1, .
> C[n+]1ccccc1C(O)Cc1ccncc1 (configuration not stated)
  2.8, 87.6, 91.5, 100.3
> CC1CCc2c(sc3ncnc(N4CCN(c5ccccc5)CC4)c23)C1 (configuration not stated)
  6.3, ., ., 100.7
> CCCN(CCC)C(=O)CSc1nnc2cc(C)c3cc(C)cc(C)c3n12
  -37.5, 99.3, 79.5, 103.5
> O=C(COc1ccccc1)NN1C(=O)CSC1=S
  6.3, 87.1, 87.5, 119.9
> Cc1ccc2oc(=O)c3cc(C(=O)N(CC(C)C)CC(C)C)sc3c2c1
  ., 76.9, 89.2, 100.1
> CCc1ccc2c(c1)SC1=NS(=O)(=O)CCN12
  -3.3, 89.6, 89.7, .
> CC(C)c1ccc(OCC(=O)Nc2ccc(N3CCN(C)CC3)cc2)cc1
  -4.7, 112.8, 96.6, 105.7
> Nc1ncc(S(=O)(=O)N2CCN(c3ccccc3)CC2)cn1
  ., 96.1, 93.5, 109.8
> COc1cc2c(cc1OC)C(c1cccs1)N(C(=O)/C=C/c1ccco1)CC2 (configuration not stated)
  -23.2, 85.4, 78.9, .
> COc1ccc(Cn2cc(C(=O)c3ccc(C)cc3)c(=O)c3cc(OC)c(OC)cc32)cc1
  -38.5, 103.4, 85.7, 99.2
> Cc1ccc(C)c(NC(=O)c2ccc(S(=O)(=O)c3ccc(C)c(C)c3)nc2)c1
  18.4, ., ., 103.5
> CN(C)C(=O)c1csc(C2COc3ccccc3O2)n1 (configuration not stated)
  -11.5, 93.5, 87.9, 102.2
> CN(Cc1ccccc1)C(=O)c1cc(-c2cccc(O)c2)on1
  1.2, 84.0, 63.1, 108.8
> Cc1ccc(CNC(=O)C2=NN(c3ccccc3)C(=O)CC2)cc1
  4.6, 88.7, 95.5, .
> CC1(C)C2CCC1(CS(=O)(=O)NC(CC(=O)O)c1cccc(Br)c1)C(=O)C2 (configuration not stated)
  -9.8, 94.3, 96.4, .
> O=c1c2ccccc2n2c(-c3ccccc3O)nnc2n1Cc1ccc(F)cc1
  -7.4, 99.8, 92.3, 99.5
> N#CC1=C(S)NC(=O)C(C#N)C12CCCCC2 (configuration not stated)
  -26.7, 103.7, 87.2, 142.0
> COC(=O)C1Cc2cc(OC)c(OC)cc2C(Cc2ccc(OC)c(OC)c2)=N1 (configuration not stated)
  -20.9, 78.2, 76.2, 104.6
> O=C(Cn1cc2c(n1)CCCCC2)NCc1ccc(F)cc1
  -17.8, 95.4, 88.1, 105.4
> CCn1c(-c2cc(OC)c(OC)c(OC)c2)nc2ccccc21
  ., 92.5, 81.6, 100.9
> O=C1CN(C(=O)CSc2ccc(Cl)cc2)c2ccccc2N1
  -3.2, ., ., 103.6
> CCOc1ccc(NC(=O)CCNc2ccccc2OC)cc1
  -25.8, 82.0, 93.7, .
> COc1ccc(-c2ccc(/C=c3\sc4nc5ccccc5n4c3=O)o2)c([N+](=O)[O-])c1
  -23.1, ., ., 105.4
> CCOC(=O)c1c(NC(=O)Cc2ccc(Cl)cc2)sc(C(=O)Nc2cc(C(F)(F)F)ccc2Cl)c1C
  -4.7, ., ., 100.9
> C=CCSc1nc(C)cc(C)c1C(=O)Nc1ccccc1
  -6.7, 85.6, 90.3, 101.2

Going on with the list.
structure	HCMV NEC inh	Sa growth 42C	Sa growth 42C second temp	GIV Gai3 FP
CCN1CCc2c(sc(-n3cccc3)c2C(C)NC(=O)Nc2ccc(C(=O)OC)cc2)C1 (configuration not stated)	.	144.5	83.2	120.4
COc1ccc(NC(=O)CN(C)S(=O)(=O)c2ccc3nc(C)sc3c2)cc1Cl	-15.6	106.2	83.9	98.8
O=C(Nc1nc(-c2ccc(Br)cc2)cs1)c1cc(=O)c2ccccc2o1	-31.3	.	.	100.2
COC(=O)c1ccc(COC(=O)c2ccccn2)cc1	-1.9	89.8	76.4	99.5
Cc1ccc(N2C(=O)N(Cc3cccc(Cl)c3)c3ccccc3S2(=O)=O)cc1	.	102.0	105.1	99.0
Cc1ccc(/C=C2/SC(N3CCCC3)=NC2=O)cc1	-68.4	88.0	80.0	105.4
CCc1ccc2oc(-c3cccc(NC(=O)c4ccc(-c5cccc([N+](=O)[O-])c5)o4)c3)nc2c1	-35.4	76.9	79.3	112.4
COc1cc(/C=N/N=C2\NC(=O)C(Cc3ccc(Cl)cc3)S2)ccc1O (configuration not stated)	0.1	123.5	80.4	100.7
CC(C)(C)NC(=O)CSc1nc(N)c(C#N)cc1C#N	-6.4	99.6	85.5	.
Cn1c(=O)c(-c2noc(C(=O)NCCC3=CCCCC3)n2)nn(-c2ccc(F)cc2)c1=O	-37.4	.	.	100.8

Other compounds
structure	HCMV NEC inh	Sa growth 42C	Sa growth 42C second temp	GIV Gai3 FP
COc1ccc2[nH]cc(CCNC(=O)C3CCCN(c4nc5cccnc5s4)C3)c2c1 (configuration not stated)	-16.1	.	.	104.0
COc1cccc(CNC(=O)Cn2c(SCC(=O)Nc3ccc(C)c(C)c3)nc3ccccc32)c1	.	98.5	61.2	101.9
Cc1cc(C)nc(NC(N)=NCc2ccccc2Cl)n1	-2.8	21.3	6.5	.
COc1ccc(OC)c(CCNC(=O)c2ccc3c(c2)N(Cc2ccccc2)CCS3)c1	-36.5	109.9	85.7	105.8
COc1cc(OC)cc(C(=O)N2N=C(c3c(-c4ccccc4)c4cc(Br)ccc4[nH]c3=O)CC2c2ccco2)c1 (configuration not stated)	0.4	.	.	100.3
O=c1oc2ccc(Br)cc2cc1-c1csc(-c2ccc(Cl)cc2)n1	.	97.9	85.7	103.4
CCC(C(=O)NCc1cccc(OC)c1OC)n1sc2ccccc2c1=O (configuration not stated)	.	116.1	95.5	100.0
COc1ccc(CCNC(=O)c2ccc3c(c2)CCN3S(=O)(=O)c2ccc(C)cc2)cc1	-23.2	109.0	104.3	101.1
N#Cc1c(NC(=O)c2ccccc2)oc(-c2ccccc2)c1-c1ccccc1	-19.6	97.7	81.1	101.8
Cc1ccc(-n2c3nc(=O)[nH]c(=O)c-3cc3c(C)nn(-c4ccccc4)c32)cc1Cl	-22.1	102.9	87.6	98.3

Brought forward from above: 3 entries; new compounds follow.
structure	HCMV NEC inh	Sa growth 42C	Sa growth 42C second temp	GIV Gai3 FP
COc1ccc(CCNC(=O)c2ccc3c(c2)CCN3S(=O)(=O)c2ccc(C)cc2)cc1	-23.2	109.0	104.3	101.1
N#Cc1c(NC(=O)c2ccccc2)oc(-c2ccccc2)c1-c1ccccc1	-19.6	97.7	81.1	101.8
Cc1ccc(-n2c3nc(=O)[nH]c(=O)c-3cc3c(C)nn(-c4ccccc4)c32)cc1Cl	-22.1	102.9	87.6	98.3
O=C(O)c1ccc(CSc2ccc(Cl)cc2)cc1	-17.9	69.0	83.0	.
O=c1[nH][nH]c2nc(C(F)(F)F)cc(C(F)(F)F)c12	-36.0	106.5	86.5	.
COC(=O)C1CCN(C(=O)COC(=O)CCc2nc3ccccc3c(=O)[nH]2)CC1	-9.7	89.2	95.0	.
CCOC(=O)CCc1c(C)nn2cnnc2c1C	.	103.7	95.8	102.1
CCOC(=O)c1ccc(NC(=O)CC2C(=O)N(c3cccc(OC)c3)C(=O)N2Cc2cccnc2)cc1 (configuration not stated)	.	111.3	86.3	104.8
COc1ccc(C(=O)N2CC(=O)Nc3ccc(C)cc3C2c2ccc(F)cc2)c(OC)c1 (configuration not stated)	9.6	104.1	97.6	101.9
COc1ccc(/C=C2/N=C(N3CCOCC3)SC2=O)cc1OC	-99.8	110.3	88.7	103.4
Cc1cccc(N2CCN(S(=O)(=O)c3cc(C(=O)Nc4ccccc4Cl)ccc3F)CC2)c1C	.	122.4	98.1	106.3
CCOc1ccccc1N(CC(=O)N1CCN(c2ccccc2OC)CC1)S(=O)(=O)c1ccccc1	-13.4&-12.7	.	.	104.3&98.9
CC(C)c1cc(NC(=O)COC(=O)c2cc3c(s2)CCCCC3)on1	-27.2	70.5	88.2	.

Going on with the list.
structure	HCMV NEC inh	Sa growth 42C	Sa growth 42C second temp	GIV Gai3 FP
CCOc1ccc(NC(=O)c2ccc(F)c(S(=O)(=O)N(Cc3ccc(C(=O)OC)cc3)Cc3ccc(OC)c(OC)c3)c2)cc1	.	116.2	87.5	100.7
COc1ccc(C(CC(=O)O)NC(=O)c2cc3ccccc3oc2=O)cc1OC (configuration not stated)	-85.2	116.6	84.1	107.3
Cc1cc(C)cc(N2C(=O)C(Cc3ccccc3)N=C2N2CCN(C)CC2)c1 (configuration not stated)	-15.2	.	.	110.6
O=c1c2oc3ccccc3c2n(Cc2cccc(F)c2)c(=O)n1Cc1ccc2c(c1)OCO2	.	116.8	90.7	100.6
Cc1onc(-c2ccncc2)c1C(=O)NCCCN1CCN(c2ccc(F)cc2)CC1	-6.9	.	.	99.7
COc1nc(F)c(F)c(Oc2ccc(C)cc2)c1F	-11.3	93.6	87.4	107.2
